Assay outcomes deposited in PubChem by National Center for Advancing Translational Sciences (NCATS).
RE007 growth inh – less growth of the S. pombe RE007 Vpr strain | S. pombe RE007 Vpr strain, BacTiter-Glo ATP luminescence, 24 h; control for the full effect not named in the record | Potency, µM (highest dose often 92.2 µM), without a hit: top-dose activity change, negative = less growth | hit rate 0.21% among 360,000 | AID 651644; active = well fitted falling curve with a large enough effect; inconclusive = small, poorly fitted or top-dose-only effect; inactive = no such curve, though single readings can be large or run the other way;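 also: % is scaled to controls: 0 for no effect and ±100 for the full control effect; nearly all actives have a fitted effect of over 50% in size; the assay follows cell death caused by Vpr and the record does not say whether a fall means rescue or toxicity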
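Fission yeast strain RE007, carrying one chromosomally integrated HIV-1 vpr copy, was seeded at OD 0.01 in PMG+AL medium with 23 nL pinned compound. After 24 h at 30 °C and 99% humidity, viability was read by BacTiter-Glo luminescence.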
NS1 function inh – inhibitors of influenza NS1 protein function. S. cerevisiae slowed by influenza A NS1, growth recovery by OD600. Potency, µM (series often up to 46.1 µM), for inactives: top-dose activity, positive = more growth. hit rate 0.4% among 270,000. AID 2326; also: actives are rising curves; nearly all actives have a fitted effect of over 50% in size
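Recovery from NS1-induced slow growth read by OD600 in budding yeast switched to galactose assay medium (pH 6.0, -URA) at 1:100 dilution. Compound 23 nl per well; the matching strain lacking NS1 serves as control.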
StopGo reporter – lowers the luciferase signal of an FMDV 2A StopGo reporter | human cells with a luciferase reporter of 2A StopGo recoding; control for the full effect not named in the record | Potency, µM (top dose mostly 57.9 µM), for the others: top-dose signal change, negative = less light | hit rate 1.2% among 410,000; active = well fitted falling curve with a large enough effect; inconclusive = small, poorly fitted or top-dose-only effect; inactive = no such curve, though single readings can be large or run the other way; tested in HEK293T cells; also: % is scaled to controls: 0 for no effect and ±100 for the full control effect; nearly all actives have a fitted effect of over 45% in size; luciferase light after 4 h
LASV entry inh – Lassa virus entry inhibition | Potency, µM (titrated, usually from 37.9 µM), without a hit: at the top dose activity change, negative = inhibition, actives largely listed as inhibitors | hit rate 1.2% among 300,000 | AID 540256 | Lassa virus pseudotype entry inhibition, cell reporter; control for the full effect not named in the record; active means well fitted inhibition curve with a large enough effect; inconclusive means small, poorly fitted or top-dose-only effect, or effect the other way; inactive means flat fitted curve, though single readings scatter; tested in HEK293 cells; also: % is scaled to controls: 0 for no effect and ±100 for the full control effect; nearly all actives have a fitted effect of over 50% in size; luciferase read-out
SARS PLpro yeast – SARS-CoV PLP inhibition in yeast | S. cerevisiae expressing SARS-CoV PLpro, growth rescue; control for the full effect not named in the record | Potency, µM (titrated, usually from 32.9 µM), inactives show at the top dose activity, positive = growth rescue | hit rate 0.19% among 330,000; also: 0% is about no effect; nearly all actives have a fitted effect of over 55% in size; growth read by luminescence after 48 h
Cruzain inh noDet – cruzain (T. cruzi) inhibition without detergent; hit rate 2.3% among 200,000; Potency, µM, without a hit: max response, negative = inhibition, hits mostly inhibitors; P25779; AID 1476; purified cruzain, Z-FR-AMC fluorescence, no detergent; active = well fitted curve in the direction sought with a large enough effect; inconclusive = small, poorly fitted or top-dose-only effect, or another doubt; inactive = no such curve, though single readings can be large; an effect the other way counts as inactive or inconclusive;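 also: plate controls were enzyme without inhibitor for no effect and buffer without enzyme for full effect; nearly all actives have a fitted effect of over 40% in size; top concentration of the series not given in the record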
Target sequence (P25779 123-467 limits assumed): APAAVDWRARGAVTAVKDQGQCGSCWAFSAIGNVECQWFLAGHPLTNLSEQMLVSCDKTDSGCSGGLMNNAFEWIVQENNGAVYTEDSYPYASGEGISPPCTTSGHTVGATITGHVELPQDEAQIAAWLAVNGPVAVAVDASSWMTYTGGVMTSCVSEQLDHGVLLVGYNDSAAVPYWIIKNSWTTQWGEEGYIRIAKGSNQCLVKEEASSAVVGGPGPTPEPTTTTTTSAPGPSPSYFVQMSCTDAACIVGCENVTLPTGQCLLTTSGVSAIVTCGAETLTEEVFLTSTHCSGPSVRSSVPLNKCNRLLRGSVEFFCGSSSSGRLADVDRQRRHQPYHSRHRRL
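Detergent-free condition (0.00005% Triton X-100) in acetate buffer pH 5.5 with DTT. 1.5 nM enzyme and compound were pre-mixed 15 min, then 2 uM Z-FR-AMC substrate added; reaction progress from fluorescence change between first and third reads (60 s).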
MARV entry inh – blocks Marburg virus binding to or entry into cells | Marburg virus pseudotyped entry inhibition, cell reporter; control for the full effect not named in the record; about a third of the inactives were read at about 46 µM | Potency, µM (doses to about 37.8 µM), for inactives: top-dose activity change, negative = inhibition, actives largely listed as inhibitors | hit rate 1.8% among 300,000; active = well fitted inhibition curve with a large enough effect; inconclusive = small, poorly fitted or top-dose-only effect, or effect the other way; inactive = flat fitted curve, though single readings scatter; tested in HEK293 cells; about a fifth of its hits are not listed in these tables; also: % is scaled to controls: 0 for no effect and ±100 for the full control effect; luciferase read-out
Cruzain Triton – inhibitors of Trypanosoma cruzi cruzain with detergent | P25779 | purified cruzain, Z-FR-AMC fluorescence, 0.01% Triton | Potency, µM, without a hit: max response, negative = inhibition, hits mostly inhibitors | hit rate 0.43% among 200,000 | AID 1478; active = well fitted curve in the direction sought with a large enough effect; inconclusive = small, poorly fitted or top-dose-only effect, or another doubt; inactive = no such curve, though single readings can be large; an effect the other way counts as inactive or inconclusive;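 also: plate controls were neutral wells for no effect and buffer without enzyme for full effect; nearly all actives have a fitted effect of over 40% in size; top concentration of the series not given in the record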
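Cruzain (1.5 nM) preincubated 15 min at RT with compound in 100 mM sodium acetate pH 5.5, 5 mM DTT, 0.01% Triton X-100. Reaction started with 2 uM Z-FR-AMC; AMC fluorescence (ex 360/em 450 nm) change over 60 s gave rate.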
* hit, by the source's call; ? = inconclusive; · = not tested or not shown; [ ] = dose if it differs, or a comment. Unless noted, calls follow the shape of the dose curve; as a rule, active means well fitted rising curve with a large enough effect; inconclusive means small, poorly fitted or top-dose-only effect; inactive means no such curve, though single readings can be large or run the other way. Potency is read from the fitted curve at half-maximal effect.

1. COC(=O)C1(C)NC(c2ccc(O)cc2)C2C(=O)N(c3ccc(C)cc3)C(=O)C21 (centres undefined)
2. O=C(O)c1ccc(CN2C(=O)CSC2=S)cc1
3. Cc1ccc(N2C(=O)C3NN=C(C(=O)OCc4ccccc4)C3C2=O)c(C)c1 (centres undefined)
4. CCC(C)Nc1nc(SC(C(C)=O)C(C)=O)nc(N(C)C)n1 (centres undefined)
5. Cc1ccc(CCNC(=O)c2cc(-c3ccccc3)n[nH]2)cc1
6. CCOC(=O)C1=C(C)NC(=O)NC1c1ccc2c(c1)OCCO2 (centres undefined)
7. Nc1c(C(=O)N2CCCC2)sc2nc(-c3ccccc3)ccc12
8. C[C@@H](C[C@@H](O)[C@H](O)C(C)(C)O)[C@@H]1CC[C@]2(C)C3=CC[C@H]4C(C)(C)C(=O)CC[C@]4(C)[C@H]3CC[C@@]12C
9. COc1cc(C(C)=O)ccc1Oc1ncnc2c1cnn2-c1ccccc1
10. Cc1cnc(NC(=O)c2nn(C)cc2[N+](=O)[O-])s1

screen / no. | 1 | 2 | 3 | 4 | 5 | 6 | 7 | 8 | 9 | 10
MARV entry inh | -4%[46.1 µM] | ? | 0% | -8%[46.1 µM] | · | 10% | ? | -16% | 3% | 2%[46.1 µM]
StopGo reporter | 11% | -6% | ? | -25% | 3% | -17% | 22% | ? | -23% | -13%
RE007 growth inh | -9% | -19% | 8% | -9% | · | 5% | -12% | -6% | -5% | -20%
LASV entry inh | 7%[46.1 µM] | 2% | 3% | 3% | -24%[46.1 µM] | 4% | 0%[46.1 µM] | -14% | ? | 2%[46.1 µM]
Cruzain inh noDet | · | 5% | 11% | -5% | -9% | 0% | · | ? | 5% | ·
NS1 function inh | 1% | -147% | -6% | -34% | · | -2% | 0% | -7% | 4% | 1%
Cruzain Triton | · | 1.1% | -2.8% | -2.8% | -3.7% | -1.9% | · | -3.1% | -4.4% | ·
SARS PLpro yeast | -2% | -7% | -28% | -1% | · | 6% | -2% | -36% | -6% | 0%

11. O=C(CSc1ccc(-c2nc3ccccc3[nH]2)cn1)N1CCN(C(=O)c2ccco2)CC1
12. CN(C)c1ccc(CNC(=O)c2ccc(CNc3c(N4CCCCC4)c(=O)c3=O)cc2)cc1
13. COc1ccc(C(=O)Oc2c(CN3CCOCC3)cc(Cl)c3cccnc23)cc1OC
14. CN(C)S(=O)(=O)c1ccc(C(=O)OCC(=O)Nc2ccccc2OC(F)F)cc1
15. CC(=O)c1cccc(NC(=O)c2cnn(-c3cccc(C)c3)c2-n2cccc2)c1
16. NS(=O)(=O)c1ccc(CNC(=O)c2cccc(S(=O)(=O)N3CCc4ccccc43)c2)cc1
17. CCOc1ccc(-n2c(SC(C)C)nc3c(c2=O)SCC3)cc1
18. Cc1ccccc1C(=O)Nc1cccc(-c2ccc3nncn3n2)c1
19. CC(C)Cn1c(C(C)C)nc([N+](=O)[O-])c1Sc1ccc(Cl)cn1
20. Cc1cccc(NC(=O)/C(C#N)=C\c2cn(CC(=O)O)c3ccccc23)c1

screen / no. | 11 | 12 | 13 | 14 | 15 | 16 | 17 | 18 | 19 | 20
MARV entry inh | ? | 0% | 0% | -1% | · | ? | -10% | ? | -29% | -2%[46.1 µM]
StopGo reporter | ? | -20% | -6% | -13% | -7% | ? | ? | -10% | ? | -5%
RE007 growth inh | 3% | -2% | -11% | 8% | · | 4% | 4% | -13% | 16% | 1%
LASV entry inh | -9% | · | · | 2% | ? | 5% | -3% | ? | 3% | 19%[46.1 µM]
Cruzain inh noDet | 10% | -9% | · | 0% | 3% | · | -6% | · | -1% | ·
NS1 function inh | -21% | -2% | -36% | -7% | · | · | 0% | · | -8% | 3%
Cruzain Triton | -7.0% | -3.3% | · | 6.3% | 1.7% | · | -21% | · | -7.2% | ·
SARS PLpro yeast | 11% | 0% | · | -1% | · | -2% | 7% | 0% | -11% | 0%

21. CCn1c(=O)n(CC)c2cc(S(=O)(=O)Nc3ccccc3C)c(C)cc21
22. COc1ccccc1Oc1ccc2c(c1)C(=O)N(c1ccc(Br)c3cccnc13)C2=O
23. O=C(CSc1nc(Nc2ccccc2)nc(N2CCOCC2)n1)Nc1ccc2c(c1)OCCO2
24. CN1CCC(=NNC(=O)CN(c2cccc([N+](=O)[O-])c2)S(=O)(=O)c2ccccc2)CC1
25. CN(C(=O)c1ccc(Br)cc1)C1CCS(=O)(=O)C1 (centres undefined)
26. Cc1cc(OC(=O)c2cc(Cl)ccc2Cl)c([N+](=O)[O-])c(=O)[nH]1
27. N/C(=N\c1nc2c(c(=O)[nH]1)CCCC2)Nc1ccc(Oc2ccccc2)cc1
28. CN(CC(=O)Nc1ccc(Cl)c(C(F)(F)F)c1)C(=O)c1cccnc1Sc1ccccc1
29. CC(C)CCN1CCN(Cc2ccc(C(F)(F)F)cc2)CC1CCO (centres undefined)
30. S=c1[nH]c(-c2ccccc2)cs1

screen / no. | 21 | 22 | 23 | 24 | 25 | 26 | 27 | 28 | 29 | 30
MARV entry inh | -30% | -5% | ? | 8%[46.1 µM] | 21%[46.1 µM] | · | -21% | · | · | 25%[46.1 µM]
StopGo reporter | 43%[activator] | 0% | -7% | 24% | -16% | 0% | · | -2% | -17% | 16%
RE007 growth inh | 12% | 6% | -3% | -11% | 5% | 11% | -7% | 12% | -4% | 21%
LASV entry inh | -42%[14.3 µM] | -7% | -8% | · | 14% | · | -9% | · | · | ·
Cruzain inh noDet | -1% | ? | -2% | · | · | · | -4% | · | · | ·
NS1 function inh | -8% | 12% | -45% | ? | · | 5% | ? | 9% | 0% | ·
Cruzain Triton | 4.3% | 3.5% | -3.9% | · | · | · | -3.1% | · | · | ·
SARS PLpro yeast | 27% | -1% | -1% | 0% | -3% | 3% | 0% | 2% | -1% | 20%

31. O=[N+]([O-])c1cc(C(F)(F)F)ccc1N1CCCNCC1
32. CCN1CCN(c2c(Cl)cccc2NC(=O)c2ccc3nsnc3c2)CC1
33. Clc1ccc(-c2cc3ccccc3nc2N2CCOCC2)cc1
34. CN(CC(=O)Nc1ccc(F)cc1)C(=O)COC(=O)c1ccccc1
35. O=S(=O)(NCC(c1cccnc1)N1CCN(Cc2ccccc2)CC1)c1ccc(F)cc1 (centres undefined)
36. CC(C)(C)OC(=O)N1CCCC1C(=O)NCCc1ccccc1 (centres undefined)
37. CC(C)c1ccc(/C=C/C(=O)NC2CCCCC2)cc1
38. CC(C)n1c(O)c(N=NC(=O)CNC(=O)c2cccnc2)c2ccccc21
39. CC(=O)Nc1ccc(C(=O)Nc2ccc(S(=O)(=O)Nc3nccc(C)n3)cc2)cc1
40. Brc1cccc(CNn2cnnc2)c1

screen / no. | 31 | 32 | 33 | 34 | 35 | 36 | 37 | 38 | 39 | 40
MARV entry inh | 20% | 8%[46.1 µM] | ? | ? | -23% | 13% | 1% | · | · | ?
StopGo reporter | -10% | -22% | ? | -16% | -19% | -8% | 7% | -18% | -10% | 27%
RE007 growth inh | 0% | 10% | -6% | 16% | -24% | -9% | -7% | -4% | 1% | -5%
LASV entry inh | -14% | -9% | -28% | 3% | 1% | 7% | ? | · | · | 16%[46.1 µM]
Cruzain inh noDet | · | · | · | · | · | -2% | 8% | · | · | ·
NS1 function inh | -1% | 0% | · | · | 4% | 1% | 9% | -12% | 22% | ·
Cruzain Triton | · | · | · | · | · | 5.7% | -2.3% | · | · | ·
SARS PLpro yeast | 0% | 0% | -20% | -5% | -1% | -1% | -5% | 0% | 8% | ·

41. O=C(CC1CCCC1)N1CCCC(Nc2ccc(F)cc2)C1 (centres undefined)
42. Cc1nnc(NC(=O)CSc2nnc(CCNC(=O)c3ccccc3F)n2C)s1
43. COc1ccc(-n2nc3c(c2NC(=O)c2ccc(N4C(=O)CCC4=O)cc2)CSC3)cc1
44. Cc1ccc(-c2nc3ccccn3c2Nc2ccc3c(c2)OCO3)cc1
45. COCCCNC(=O)c1ccc(NC(=O)c2nsc3ccccc23)cc1
46. CCCc1nnc(NC(=O)c2nc(SCC)ncc2Cl)s1
47. Cc1ccc(S(=O)(=O)NCCc2nnc3ccc(SCc4cccc(F)c4)nn23)cc1
48. COc1ccc(C)cc1NC(=O)CNc1ccccc1CN(C)C1CCCCC1
49. CC(C)Nc1nnc(SCC(=O)NCc2ccc3c(c2)OCO3)s1

screen / no. | 41 | 42 | 43 | 44 | 45 | 46 | 47 | 48 | 49
MARV entry inh | -1% | -3%[46.1 µM] | 5%[46.1 µM] | 4%[46.1 µM] | · | -15%[46.1 µM] | · | 4.5µM* | -14%[46.1 µM]
StopGo reporter | -19% | -5% | -12% | 11% | 22% | -17% | 7% | ? | -6%
RE007 growth inh | -16% | -19% | -9% | · | · | · | · | -16% | -2%
LASV entry inh | 3% | 12%[46.1 µM] | 2%[46.1 µM] | -4%[46.1 µM] | 7%[46.1 µM] | 3%[46.1 µM] | -5%[46.1 µM] | -21%[46.1 µM] | -4%[46.1 µM]
Cruzain inh noDet | · | · | · | -26% | -7% | -17% | ? | · | ·
NS1 function inh | -1% | 0% | · | · | · | · | · | · | ·
Cruzain Triton | · | · | · | -13% | -3.7% | -8.9% | -5.6% | · | ·
SARS PLpro yeast | -4% | 1% | 1% | · | · | · | · | 0% | 2%
